High-throughput results: PubChem BioAssay, National Center for Advancing Translational Sciences (NCATS)
2A firefly = lowers the firefly signal of an FMDV 2A StopGo reporter; HEK cells with a luciferase reporter of 2A StopGo recoding; Potency, µM (top dose mostly 57.5 µM), inactives show top-dose signal change, negative = less light; 120,000 tested, 0.23% active; active = well fitted falling curve with a large enough effect; inconclusive = small, poorly fitted or top-dose-only effect; inactive = no such curve, though single readings can be large or run the other way; also: nearly all actives have a fitted effect of over 60% in size; overnight with compound
2A Renilla = FMDV 2A StopGo reporter, Renilla signal. HEK cells with a luciferase reporter of 2A StopGo recoding. Potency, µM (highest dose often 57.5 µM), for the others: at the highest dose signal change, negative = less light. 120,000 tested, 0.32% active. AID 1745857; active means well fitted falling curve with a large enough effect; inconclusive means small, poorly fitted or top-dose-only effect; inactive means no such curve, though single readings can be large or run the other way; also: nearly all actives have a fitted effect of over 55% in size; overnight with compound
* marks the source's active call; other numbers are inactive results; u = inconclusive; [ ] = another dose, or the depositor's remark. % is scaled to controls: 0 for no effect and ±100 for the full control effect; potency is read from the fitted curve at half-maximal effect.

structure | 2A firefly | 2A Renilla
COc1ccc(NC(=O)CSc2nc3cc(OC)c(OC)cc3c3nc(-c4ccccc4)nn23)cc1Cl | -29% | -15%
CCc1nnc(NC(=O)CCc2ncc(-c3ccccc3)o2)s1 | -1% | -6%
COC(=O)c1scc(-c2ccc(C)cc2)c1S(=O)(=O)Nc1ccc(N(C)C)cc1 | 62%[activator] | 38%[activator]
CNC(=O)NC(=O)C(C)Oc1ccc2ccc(=O)oc2c1 (stereo not given) | 35%[activator] | 1%
CC1=C(C(=O)Nc2ccccc2)C(c2cccc(Cl)c2)n2nc(SCC(=O)c3ccc(C)cc3)nc2N1 (stereo not given) | 7% | -3%
COc1ccc(C2C(C(=O)Nc3ccc(Cl)cc3)=C(C)Nc3nc(SCc4cccc(C)c4)nn32)cc1OC (stereo not given) | -36% | -11%
O=C(O)c1cc(C2CC2)nc2c1c(C1CC1)nn2-c1ccc(F)cc1 | 2% | 5%
CCOc1ccc(-c2cc(C(=O)NCc3ccccc3Cl)c3ccccc3n2)cc1 | -10% | 18%
CCC1CCCCN1C(=O)c1c[nH]c2ccc(S(=O)(=O)Nc3cccc(OC)c3)cc2c1=O (stereo not given) | -23% | -3%
CC(C)(C)OC(=O)N1Cc2ccccc2C[C@H]1C(=O)NCC1CCCO1 (stereo not given in full) | 15% | 11%
Cc1cc(OCC(=O)NC2CCc3ccccc32)ccc1C(C)C (stereo not given) | 7% | 0%
COc1ccc(Cl)cc1NC(=O)CCc1ncc(-c2ccc(F)cc2)o1 | -8% | -8%
COc1ccc(C(C)(C)C)cc1NC(=O)c1ccc2c(c1)NC(=O)CS2 | u | u
Cc1cc(C)c(NC(=O)C2CCN(C(=O)N3CCOc4ccccc43)CC2)c(C)c1 | u | u
CC(C)CCC(=O)Nc1cccc(S(=O)(=O)NC(C)(C)C)c1 | 18% | 177%[activator]
CCOc1ccc(OCC)c(NS(=O)(=O)c2ccc(-c3cc(C(F)(F)F)on3)s2)c1 | 27% | 26%
Cc1ccccc1-n1cnnc1SCC(=O)Nc1ccc(S(=O)(=O)N2CCCCCC2)cc1 | 2% | 31%[activator]
CCN(C(=O)CSc1nc2n[nH]c(C)c2c(=N)n1-c1cccc(OC)c1)c1cccc(C)c1 | -20% | 24%
Cc1c(Cl)ccc(S(=O)(=O)NCCO)c1Cl | -1% | 32%[activator]
C/C=C/Cn1c(SCC(=O)OCC)nc2c1c(=O)[nH]c(=O)n2C | 6% | -4%
COCCn1c(SCc2ccc(OC)c(F)c2)nnc1-c1ccc(Cl)cc1 | 2% | 154%[activator]
CCOc1ccccc1CNC(=O)c1cc2c(=O)n(Cc3ccco3)ccc2nc1C | -12% | -1%
CCC(C)c1ccc(NC(=O)c2ccc(SC)cc2OC)cc1 (stereo not given) | 26% | 0%
Cc1ccc(C(=O)CC2(O)C(=O)Nc3ccc(F)cc32)cc1 (stereo not given) | -7% | 81%[activator]
CCOc1ccccc1NC(=O)C1CCCN1S(=O)(=O)c1ccc2nc(-c3ccccc3)[nH]c2c1 (stereo not given) | -17% | -1%
O=Cc1ccc(-c2cc(C(F)(F)F)ccc2Cl)o1 | 12% | -1%
O=S(=O)(c1ccc(C2CCCCC2)cc1)N1CCN(c2ccc(Cl)c(Cl)c2)CC1 | -3% | -3%
N#Cc1cccc(CNCc2cc(Br)cs2)c1 | 0% | 15%
CCn1cc(CNC(=O)Nc2ccc(Cl)c(Cl)c2)c(C)n1 | 156%[activator] | -6%
Cc1nc(-c2ccc(C#N)cc2)cs1 | 0% | 38%[activator]
C=CCNC(=O)COC(=O)c1cc(-c2ccc(Cl)s2)nc2ccccc12 | 102%[activator] | 11%
Cc1ccccc1C(=O)Nc1nnc(SCc2cc(=O)c3c(C)ccc(C)c3[nH]2)s1 | 25% | -13%
COc1cc(Cl)c(C)cc1NC(=O)CSc1cc(=O)n(C)c2cc(Cl)ccc12 | 2% | 9%
CC(NC(=O)CSc1ccccc1F)c1nc2ccccc2[nH]1 (stereo not given) | -13% | -14%
Cc1nc2ccccn2c(=O)c1NC(=O)c1ccccc1Cl | 69%[activator] | -10%
CC(O)CNc1nc2c(c(=O)n(C)c(=O)n2C)n1CCc1ccccc1 (stereo not given) | u | u
O=C(NCc1cccs1)c1ccc2ccccc2n1 | 206%[activator] | 212%[activator]
O=S(=O)(c1cc(F)ccc1F)N1CCN(Cc2ncc(-c3ccc(F)cc3)o2)CC1 | 18% | -15%
O=C(Nc1ccc(C(F)(F)F)cc1)c1nn(C2CCS(=O)(=O)C2)c2c1CCCC2 (stereo not given) | -8% | -7%
COc1ccc(C2=NS(=O)(=O)N(C)C(C(=O)N(C)C3CCCCC3)=C2)cc1 | -8% | 99%[activator]
CCOC(=O)N1CCN(Cc2nc3cc(NC(C)=O)ccc3n2C(C)C)CC1 | 2% | -11%
C=Cc1ccc(Cn2c(C(=O)O)c(CNCc3ccc(F)cc3)c3ccc(C)cc32)cc1 | -35% | 50%[activator]
Cc1ccc(NS(=O)(=O)c2ccc3c(c2)n(C)c(=O)n3C)c(C)c1 | 0% | 119%[activator]
COc1ccccc1N1CCN(CCCS(=O)(=O)c2ccc(Cl)cc2)CC1 | 2% | -5%
Cc1[nH]c2ccc(C(=O)NCCc3ccccc3Cl)cc2c1C | 63%[activator] | 4%
CCOc1ccc(C(=O)NN)cc1 | 79%[activator] | 9%
Cc1cc(=O)oc2cc(OCC(=O)OCC(=O)Nc3ccccc3Br)ccc12 | 4% | 0%
Cc1ccc2nc(/C(C#N)=C/c3ccc4oc5ccccc5c4c3)[nH]c2c1 | 14% | -2%
CC(C)c1ccc(NC(=O)CN2C(=O)C3(SCC(=O)N3c3ccc(F)cc3)c3ccccc32)cc1 (stereo not given) | -28% | -28%
CCC1=Nc2ccccc2N=C(NC(=O)c2ccccc2)C1c1ccc(OC)c(OC)c1 (stereo not given) | 19% | 65%[activator]

Additional structures follow:
structure | 2A firefly | 2A Renilla
Cc1ccc(Nc2cc(=O)[nH]c(=O)[nH]2)cc1C | 20% | -5%
CCC1c2ccsc2CCN1C(=O)COc1ccc2c(C)cc(=O)oc2c1 (stereo not given) | -3% | -5%
O=C(CSc1nc2ccccc2o1)c1c[nH]c2ccccc12 | 128%[activator] | 20%
COc1ccc(C(C)=O)cc1-c1cccc(C(F)(F)F)c1 | 1% | 9%
Cc1nn(-c2ccccc2)c(OC(=O)c2ccccc2)c1S(=O)(=O)c1ccccc1 | -15% | 3%
O=C(NNC(=O)C1CCCC1)c1ccc([N+](=O)[O-])cc1Cl | 30% | -10%
CC(C)(C)OC(=O)N1CCC(c2c(C(=O)O)cnn2-c2ccc(F)cc2F)CC1 | -10% | 2%
O=C(NCCCN1CCCC1)c1cccnc1 | 15% | 14%
CCOc1ccccc1NC(=O)CSc1nc2ccsc2c(=O)[nH]1 | 0% | 18%
CC(C)(C)NC(=O)CNc1nc(C(F)(F)F)nc2ccccc12 | -23% | -18%
Cc1nc(-c2ccccc2)sc1-c1ccc(SCC(=O)NCc2ccc(Cl)cc2)nn1 | -1% | -5%
CNC(=O)COc1ccc(C(=O)c2ccc(F)cc2)cc1 | 0% | 0%
Cc1cc(-c2ccc(N=Cc3sccc3C)c(C)c2)ccc1N=Cc1sccc1C | 135%[activator] | 27%
CC(C)N1C(=O)C(O)(CC(=O)c2cccnc2)c2ccccc21 (stereo not given) | -2% | 20%
Cc1ccc(SCCC(=O)NCCC(C)C)cc1 | 0% | 11%
COc1ccc2c(c1)-c1nc(NC(=O)c3ccc(C)cc3)sc1CC2 | 0% | 19%
C[C@@H]1CC2=CC(=O)CC[C@@H]2[C@H]2CC[C@@]3(C)[C@@H](CC[C@]3(C)O)[C@@H]21 | -16% | -8%
CN(C(=O)CSc1nc(-c2ccccc2)no1)C1CCCCC1 | 148%[activator] | -10%
Cc1cnc(NC(=O)CN(C)S(=O)(=O)c2ccc(Cl)cc2)s1 | -18% | -13%
COc1ccc(-c2cc(C(=O)N3CCC3)c3ccccc3n2)cc1 | 108%[activator] | 50%[activator]
CCCCc1cc(=O)oc2cc(OC(C)C(=O)NCc3ccncc3)c(Cl)cc12 (stereo not given) | 10% | 8%
Fc1ccc(CNCCN2CCCC2)cc1 | -5% | -2%
COc1ccc(CNC(=O)CSc2ncc3c(n2)-c2cc(Cl)ccc2N(C)S3(=O)=O)cc1 | -14% | -12%
COc1ccc(OC)c(C(C)NC(=O)CCc2c(C)c3ccc(OC)cc3oc2=O)c1 (stereo not given) | -10% | 0%
O=C(Nc1ccc(Cl)c(-c2nc3ncccc3o2)c1)c1ccco1 | 92%[activator] | 47%[activator]

Looked up above:
2A Renilla, `Cc1nn(-c2ccccc2)c(OC(=O)c2ccccc2)c1S(=O)(=O)c1ccccc1` is entered as 3%
2A firefly, `Cc1nc(-c2ccccc2)sc1-c1ccc(SCC(=O)NCc2ccc(Cl)cc2)nn1` is entered as -1%

Next part.
SMILES	2A firefly	2A Renilla
O=C(Nc1nc2ccccc2s1)c1cccn(Cc2ccccc2)c1=O	41%[activator]	16%
O=C(O)CSCc1ccc(Br)cc1	25%	22%
CC(NCc1ccccc1)C(=O)O (stereo not given)	-9%	-8%
Cc1[nH]c2ccccc2c1C(=O)COc1ccccc1	117%[activator]	-4%
CCc1ccccc1NC(=O)CCCN1C(=O)CCn2nc(-c3cn(C)c4ccccc34)cc21	9%	-11%
COc1ccc(-c2csc(/C(C#N)=C/c3ccccc3C(F)(F)F)n2)cc1OC	0%	16%
CC(C)(NC(=O)/C=C/c1cccnc1)c1ccc(Br)cc1	1%	3%
COc1ccc2oc(C(=O)NC3CCC(C)CC3)c(C)c2c1 (stereo not given)	226%[activator]	27%
CSc1cccc(NC(=O)C2CCN(c3nc4ccccc4[nH]3)CC2)c1	-21%	-20%
CCOc1cc(C2C(C(=O)Nc3ccccc3)=C(C)Nc3ncnn32)cc(Br)c1O (stereo not given)	-12%	-14%
COc1ccccc1C(=O)NCc1ccc2c(c1)CCN2C(=O)c1cccc(C)c1	-17%	-17%
Cc1c(CN(C)C(=O)c2cc3cc(Br)ccc3oc2=O)cnn1C	-4%	10%
CCOc1ccc(NC(=O)c2oc3ccccc3c2NC(=O)c2c(F)cccc2F)cc1	20%	21%
COc1ccc(NC(=O)Nc2nnc(SCC(=O)Nc3cccc(C)c3C)s2)cc1	9%	12%
Cc1ccc(Cn2c(-n3nc(C)c(C)c3C)nc3c2c(=O)n(CC(N)=O)c(=O)n3C)cc1	-2%	-8%
CSc1nc(C(C)(C)C)cc(C(F)(F)F)c1C#N	2%	5%
COc1ccc(C(=O)NCCn2cc(SCC(=O)NCCc3ccc(OC)c(OC)c3)c3ccccc32)cc1	28%	55%[activator]
CCNC(=O)CN(CC)S(=O)(=O)c1cccc2cc(C)cnc12	9%	13%
CC(C)CCNc1nc(-c2ccc(O)c(C(N)=O)c2)cs1	0%	78%[activator]
Cc1cc(O)c(CN2CCN(c3ccccc3)CC2)c2oc(=O)cc(C)c12	u	-10%
CCn1c(NCc2cccc(Cl)c2)nc2ccccc21	8%	13%
Cc1cccc2c1NC(=O)C2(O)c1c[nH]c2ccccc12 (stereo not given)	-14%	-20%
Cc1ccc(C2=NO[C@@](CC(=O)O)(C(=O)Nc3c(C)cccc3C)C2)cc1	-9%	-6%
O=S(=O)(c1ccc(-n2cnnn2)cc1)N1CCN(c2ccccc2F)CC1	12%	-14%
CCOC(=O)c1cnc2ccc(OCC)cc2c1Nc1ccc(Cl)cc1	-5%	-6%
[O-]/[N+](=C\c1ccncc1)c1ccc(Cl)cc1	47%[activator]	-1%
Cc1cc(S(=O)(=O)Nc2cc3c(cc2C)n(C)c(=O)c(=O)n3C)ccc1F	-5%	25%
COc1cc(C)cc2oc(=O)c(CC(=O)O)c(C)c12	3%	-2%
CCc1c(C)sc2c1CCN(C(=O)Nc1cc(C)ccc1OC)C2c1ccc(F)cc1 (stereo not given)	-16%	2%
Cc1nc2cc(-c3cccc(F)c3)nn2c(C)c1CCC(=O)Nc1ccc(F)c(Cl)c1	2.2µM*	-2%

Reprinted at random: 5 compounds from above, in no set order.
SMILES	2A firefly	2A Renilla
Cc1cc(O)c(CN2CCN(c3ccccc3)CC2)c2oc(=O)cc(C)c12	u	-10%
CSc1nc(C(C)(C)C)cc(C(F)(F)F)c1C#N	2%	5%
Cc1ccc(C2=NO[C@@](CC(=O)O)(C(=O)Nc3c(C)cccc3C)C2)cc1	-9%	-6%
[O-]/[N+](=C\c1ccncc1)c1ccc(Cl)cc1	47%[activator]	-1%
Cc1cccc2c1NC(=O)C2(O)c1c[nH]c2ccccc12 (stereo not given)	-14%	-20%

Next part:
SMILES	2A firefly	2A Renilla
O=C(C1CCCO1)N1CCN(Cc2coc(-c3cccc(F)c3)n2)CC1 (stereo not given)	27%	-3%
O=C(CCN=C1NS(=O)(=O)c2ccccc21)Nc1cc(Cl)cc(Cl)c1	4%	94%[activator]
Cc1ccc(S(=O)(=O)N2CCCN(CCS(=O)(=O)CCC(N)=O)CC2)cc1	17%	5%
COc1cc(/C=C(\C#N)c2cccc(Cl)c2)c(Br)cc1OCc1ccc(F)cc1	-1%	-10%
CCN1CCN(C(=O)c2ccc3c(c2)N(Cc2cc(C)ccc2C)C(=O)c2ccccc2S3(=O)=O)CC1	22%	110%[activator]
COc1ccc(C(=O)COC(=O)c2cc(S(N)(=O)=O)ccc2F)c(OC)c1	29%	3%

Not all compounds are listed. The share of hits here may be higher or lower than overall.
